Cruzain noTriton = inhibitors of Trypanosoma cruzi cruzain without detergent. P25779. purified cruzain, Z-FR-AMC fluorescence, no detergent. Potency, µM, for inactives: max response, negative = inhibition, hits mostly inhibitors. 200,000 compounds, 2.3% hits; active = well fitted curve in the direction sought with a large enough effect; inconclusive = small, poorly fitted or top-dose-only effect, or another doubt; inactive = no such curve, though single readings can be large; an effect the other way counts as inactive or inconclusive;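 note: plate controls were enzyme without inhibitor for no effect and buffer without enzyme for full effect; nearly all actives have a fitted effect of over 40% in size; top concentration of the series not given in the record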
Target sequence (P25779 123-467 limits assumed): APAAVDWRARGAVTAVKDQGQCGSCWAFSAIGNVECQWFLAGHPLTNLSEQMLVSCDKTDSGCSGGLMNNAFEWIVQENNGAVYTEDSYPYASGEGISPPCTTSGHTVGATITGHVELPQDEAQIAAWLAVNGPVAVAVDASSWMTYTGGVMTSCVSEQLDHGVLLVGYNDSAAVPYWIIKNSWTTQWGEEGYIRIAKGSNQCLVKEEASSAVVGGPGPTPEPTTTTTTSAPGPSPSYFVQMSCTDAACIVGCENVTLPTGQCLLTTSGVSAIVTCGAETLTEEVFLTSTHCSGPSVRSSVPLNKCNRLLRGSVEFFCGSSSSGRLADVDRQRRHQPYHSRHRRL
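Detergent-free condition (0.00005% Triton X-100) in acetate buffer pH 5.5 with DTT. 1.5 nM enzyme and compound were pre-mixed 15 min, then 2 uM Z-FR-AMC substrate added; reaction progress from fluorescence change between first and third reads (60 s).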
NS1 inh = blocks influenza NS1 protein function. S. cerevisiae slowed by influenza A NS1, growth recovery by OD600. Potency, µM (doses to about 46.1 µM), without a hit: at the highest dose activity, positive = more growth. 270,000 compounds, 0.4% hits; note: actives are rising curves; nearly all actives have a fitted effect of over 50% in size
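Recovery from NS1-induced slow growth read by OD600 in budding yeast switched to galactose assay medium (pH 6.0, -URA) at 1:100 dilution. Compound 23 nl per well; the matching strain lacking NS1 serves as control.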
LASV entry inh = Lassa virus entry inhibition; Lassa virus pseudotype entry inhibition, cell reporter; control for the full effect not named in the record; Potency, µM (series often up to 37.9 µM), inactives show at the highest dose activity change, negative = inhibition, usual class: inhibitors; 300,000 compounds, 1.2% hits; AID 540256; active means well fitted inhibition curve with a large enough effect; inconclusive means small, poorly fitted or top-dose-only effect, or effect the other way; inactive means flat fitted curve, though single readings scatter; tested in HEK293 cells; note: % is set by controls: 0 for no effect and ±100 for the full control effect; nearly all actives have a fitted effect of over 50% in size; luciferase read-out
RE007 growth inh = less growth of the S. pombe RE007 Vpr strain. S. pombe RE007 Vpr strain, BacTiter-Glo ATP luminescence, 24 h; control for the full effect not named in the record. Potency, µM (highest dose often 92.2 µM), for the others: top-dose activity change, negative = less growth. 360,000 compounds, 0.21% hits; active = well fitted falling curve with a large enough effect; inconclusive = small, poorly fitted or top-dose-only effect; inactive = no such curve, though single readings can be large or run the other way;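 note: % is set by controls: 0 for no effect and ±100 for the full control effect; nearly all actives have a fitted effect of over 50% in size; the assay follows cell death caused by Vpr and the record does not say whether a fall means rescue or toxicity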
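Fission yeast RE007 carrying one integrated HIV-1 vpr copy, seeded at OD 0.01 in PMG+AL medium with 23 nL pinned compound. Grown 24 h at 30 degrees; viability read by BacTiter-Glo luminescence after 5 min.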
SARS PLP yeast = SARS-CoV PLP inhibition in yeast; Potency, µM (doses to about 32.9 µM), without a hit: at the highest dose activity, positive = growth rescue; S. cerevisiae expressing SARS-CoV PLpro, growth rescue; control for the full effect not named in the record; 330,000 compounds, 0.19% hits; note: 0% is about no effect; nearly all actives have a fitted effect of over 55% in size; growth read by luminescence after 48 h
StopGo reporter = lowers the luciferase signal of an FMDV 2A StopGo reporter. Potency, µM (doses to about 57.9 µM), inactives show at the highest dose signal change, negative = less light. 410,000 compounds, 1.2% hits. human cells with a luciferase reporter of 2A StopGo recoding; control for the full effect not named in the record; active = well fitted falling curve with a large enough effect; inconclusive = small, poorly fitted or top-dose-only effect; inactive = no such curve, though single readings can be large or run the other way; tested in HEK293T cells; note: % is set by controls: 0 for no effect and ±100 for the full control effect; nearly all actives have a fitted effect of over 45% in size; luciferase light after 4 h
MARV entry inh = Marburg virus entry inhibition; AID 540276; 300,000 compounds, 1.8% hits; Marburg virus pseudotyped entry inhibition, cell reporter; control for the full effect not named in the record; about a third of the inactives were read at about 46 µM; Potency, µM (top dose mostly 37.8 µM), inactives show at the highest dose activity change, negative = inhibition, usual class: inhibitors; active = well fitted inhibition curve with a large enough effect; inconclusive = small, poorly fitted or top-dose-only effect, or effect the other way; inactive = flat fitted curve, though single readings scatter; tested in HEK293 cells; about a fifth of its hits are not listed in these tables; note: % is set by controls: 0 for no effect and ±100 for the full control effect; luciferase read-out
Cruzain inh Det = cruzain (T. cruzi) inhibition with detergent; Potency, µM, without a hit: max response, negative = inhibition, most hits filed as inhibitors; P25779; 200,000 compounds, 0.43% hits; purified cruzain, Z-FR-AMC fluorescence, 0.01% Triton; active = well fitted curve in the direction sought with a large enough effect; inconclusive = small, poorly fitted or top-dose-only effect, or another doubt; inactive = no such curve, though single readings can be large; an effect the other way counts as inactive or inconclusive;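 note: plate controls were neutral wells for no effect and buffer without enzyme for full effect; nearly all actives have a fitted effect of over 40% in size; top concentration of the series not given in the record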
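In this qHTS format, compounds are incubated with 1.5 nM cruzain for 15 min at room temperature before 2 uM Z-FR-AMC is added. Release of AMC is followed at 360/450 nm, and progress is taken as the 60 s fluorescence difference.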
* hit, by the source's call; ? = inconclusive; / = not tested or not shown; & = joins results of further samples; [ ] = dose if it differs, or a comment. Unless noted, calls come from the whole dose curve; as a rule, active means well fitted rising curve with a large enough effect; inconclusive means small, poorly fitted or top-dose-only effect; inactive means no such curve, though single readings can be large or run the other way. Potency is the fitted concentration of half-maximal effect. Compounds were not picked by outcome, and some 4.7% of all compounds hit somewhere here.

SMILES | Cruzain noTriton | NS1 inh | LASV entry inh | RE007 growth inh | SARS PLP yeast | StopGo reporter | MARV entry inh | Cruzain inh Det
N#CC1(NC(=O)COc2cccnc2[N+](=O)[O-])CCCCC1 | / | / | -5% | -4% | -6% | 0% | -2% | /
O=C(c1cc(Cl)nc2ccccc12)N1CCN(S(=O)(=O)c2cccc(F)c2)CC1 | / | / | 9% | 7% | / | -6% | 2% | /
CC(n1cnnn1)C12CC3CC(CC(C3)C1)C2 (stereo unspecified) | 7% | 0% | ? | 10% | -2% | -16% | 18% | 1.6%
O=C(CN1CCc2ccccc2C1)NCC(=O)Nc1ccc(F)cc1 | / | / | 9% | 7% | -3% | -7% | -4%[46.1 µM] | /
Cc1ccc2[nH]cc(CCNC(=O)C3CCCCC3)c2c1 | / | 21% | / | -3% | -6% | -19% | / | /
CCOC(=O)c1ccc(NC(=O)c2nc[nH]c2C(=O)N(CC)CC)cc1 | / | -4% | / | 9% | 8% | 17% | / | /
COc1ccc(OCC(=O)NNC(=O)C(=O)Nc2cc(OC)ccc2OC)cc1 | / | -10% | / | -8% | -2% | -6% | / | /
CCC(C)c1ccc(NC(=O)COC(=O)c2nc3nccc(C)n3n2)cc1 (stereo unspecified) | / | 7% | / | 3% | 0% | 37%[activator] | / | /
O=C(Cc1ccc([N+](=O)[O-])cc1)Nc1nnc(C2CC2)s1 | ? | 15% | -5% | 4% | -13% | -10% | 2% | -1.9%
Clc1cccc(CNc2cc(-c3ccccc3)nc3nncn23)c1 | -6% | / | ? | / | / | ? | ? | -3.8%
O=C(CCN1C(=O)/C(=C/c2cccs2)SC1=S)Nc1ccc(C(=O)O)c(O)c1 | / | 22% | / | 4% | ? | 10% | / | /
CC(C)n1c(N2CCN(C(=O)Nc3ccccc3)CC2)nc2ccccc21 | -4% | -31% | 11% | -6% | -1% | -13% | 22% | 3.0%
COc1ccc2nc(C)cc(C(=O)O)c2c1 | -5% | 9% | -3% | 3% | 2% | 12% | -14% | -0.4%
CC(C)C(=O)Nc1c(-c2ccccc2Cl)c(=O)c2ccccc2n1C | / | 4% | / | 5% | -1% | 0% | / | /
COc1ccc2c(c1)c(C)cc[n+]2Cc1ccccc1 | / | 14% | / | -9% | -3% | ? | / | /
CC1=CC(c2ccccc2)n2nc(NC(=O)CCCC(=O)O)nc2N1 (stereo unspecified) | / | 0% | 4% | 10% | 0% | -15% | 4% | /
Nc1c(C(=O)O)sc2nc(-c3ccccc3)cc(-c3ccc(F)cc3)c12 | / | 4% | / | 20% | 1% | -16% | / | /
CCn1c(SCC(=O)Nc2cccc(C)n2)nc2c1c(=O)n(C)c(=O)n2C | / | 0% | ? | 26% | 2% | 0% | ? | /
CC(=O)Nc1ccc2nc(NC(=O)COc3ccccc3Cl)sc2c1 | / | / | 17% | 52% | 2% | 55%[activator] | ? | /
CCCc1ccc2oc(C(=O)N3CCCC3)c(C)c2c1 | / | -43% | ? | -20% | -6% | 52%[activator] | -3% | /

Part of the list above, as comma-separated lines:
Structure,Cruzain noTriton,NS1 inh,LASV entry inh,RE007 growth inh,SARS PLP yeast,StopGo reporter,MARV entry inh,Cruzain inh Det
CC(C)C(=O)Nc1c(-c2ccccc2Cl)c(=O)c2ccccc2n1C,/,4%,/,5%,-1%,0%,/,/
CCCc1ccc2oc(C(=O)N3CCCC3)c(C)c2c1,/,-43%,?,-20%,-6%,52%[activator],-3%,/
N#CC1(NC(=O)COc2cccnc2[N+](=O)[O-])CCCCC1,/,/,-5%,-4%,-6%,0%,-2%,/
Nc1c(C(=O)O)sc2nc(-c3ccccc3)cc(-c3ccc(F)cc3)c12,/,4%,/,20%,1%,-16%,/,/

Next section.
SMILES | Cruzain noTriton | NS1 inh | LASV entry inh | RE007 growth inh | SARS PLP yeast | StopGo reporter | MARV entry inh | Cruzain inh Det
COc1ccc(OC)c(CNC(=O)C2CCN(S(=O)(=O)c3ccc4[nH]c(=O)oc4c3)CC2)c1 | -6% | / | 1%[46.1 µM] | / | / | -8% | / | -1.7%
C[C@H](NCc1c[nH]c2ccccc12)c1ccccc1 | / | 3% | / | -7% | 7% | 41%[activator] | / | /
CCC(c1nnc(SCC(=O)NCC2CCCO2)n1Cc1ccccc1)N(C)C (stereo unspecified) | / | 7% | 0% | -7% | / | -2% | 1%&-7% | /
COC(=O)c1sccc1OCc1cccc(OC)c1 | / | -3% | / | -18% | 1% | 16% | / | /
NC(=O)NCc1ccccc1F | / | -1% | -4%[46.1 µM] | -6% | 0% | -2% | 4%[46.1 µM] | /
COc1cc(NC(=O)c2ccc3c(c2)OCCO3)ccc1NC(=O)c1cccs1 | / | 3% | / | 8% | -1% | 17% | -5%[46.1 µM] | /
C=CCn1c2ccccc2c2nnc(SCC(=O)Nc3c(C)n(C)n(-c4ccccc4)c3=O)nc21 | -3% | 5% | 0% | -22% | 6% | 0% | 1% | -5.6%
CC12CNCC(C)(CN(C3(O)C(=O)Nc4ccc(Br)cc43)C1)C2=O (stereo unspecified) | / | 1% | ? | 2% | 0% | -11% | 1% | /
CCOP(=O)(c1ccc(N(C)C)cc1)C(O)c1ccccc1OC (stereo unspecified) | 0% | 14% | 12% | 18% | 6% | 10% | 20% | 3.8%
CSc1ccc(C2C(C(=O)c3ccco3)=C(O)C(=O)N2c2nnc(SC)s2)cc1 (stereo unspecified) | / | 17% | / | -13% | -1% | 30%[activator] | / | /
COc1ccc(CNC(=O)CCn2c(=O)oc3ccccc32)cc1 | -8% | 7% | -4% | 9% | 3% | -17% | 2% | 3.2%
O=C(Nc1cccc([N+](=O)[O-])c1)c1[nH]ncc1Cl | -5% | -31% | ? | -10% | -2% | 18% | ? | -4.0%
OCCNC(=S)c1ccccc1 | / | -2% | / | 6% | 0% | -2% | / | /
O=C(O)CCCNS(=O)(=O)c1cccs1 | -2% | 1% | 4% | -4% | 4% | -10% | 13% | 6.4%
COC(=O)c1sccc1NC(=O)CSc1ccccc1NS(=O)(=O)c1ccc(Cl)cc1 | ? | ? | -4% | -2% | -3% | ? | -13% | 4.1%
CNC(=O)/C(=C\c1ccc2c(c1)OCO2)NC(=O)c1ccc(Br)cc1 | 2% | 8% | 9% | -1% | 1% | -6% | -18% | -6.2%
CCOc1ccc2[nH]c(=O)c(CN(Cc3nnnn3Cc3ccccc3)CC3CCCO3)cc2c1 (stereo unspecified) | ? | -7% | -15% | -3% | 1% | / | -4%&-27% | -2.6%
CC(=O)Nc1cccc(/C(C)=N/NC(=O)c2cc(-c3ccncc3)nc3ccccc23)c1 | / | -4% | ? | -9% | 1% | -23% | 4%[46.1 µM] | /
Cc1cc(C)c(NC(=O)C(=O)NCCc2csc(-c3ccc(F)cc3)n2)c(C)c1 | -14% | / | 2%[46.1 µM] | / | / | ? | / | -3.3%
CC(C)Oc1ccc(C2C(C#N)=C(N)Oc3c2oc(CO)cc3=O)cc1 (stereo unspecified) | / | / | -9% | 3% | 4% | -1% | ? | /
C/C(=N/NC(=O)CNc1ccc(Cl)cc1C)c1ccc(C)cc1 | / | / | ? | -4% | 2% | -8% | ? | /
CC1CC(C)CN(CCCNC(=O)Cc2c(C(=O)O)n(C)c3ccccc23)C1 (stereo unspecified) | -1% | 4% | 1% | -4% | 0% | / | 7% | 4.0%
COc1ccccc1N1CC(C(=O)OCC(=O)c2ccc(F)cc2)CC1=O (stereo unspecified) | 16% | -9% | 2% | 1% | 0% | -1% | 0% | -1.4%
CCOC(=O)N1CCN(S(=O)(=O)c2ccc(C(=O)Nc3sc4c(c3C#N)CCC4)cc2)CC1 | 14% | -4% | 3% | 12% | 3% | -27% | -12% | 0.5%
N#CC1=C(N)OC2=C(C(=O)CCC2)C12CCC1(CC2)OCCO1 | -3% | 1% | 1% | 10% | 3% | 4% | 6% | 0.3%
O=C(COc1ccc(C(=O)c2ccc(F)cc2)cc1)Nc1cccc(S(=O)(=O)N2CCOCC2)c1 | / | / | ? | 3% | 3% | 32µM* | -43% | /
CC1Sc2ccccc2N(CC(=O)N(C(C)C)C(C)C)C1=O (stereo unspecified) | 4% | 4% | -3% | 4% | -5% | 8% | 23%[46.1 µM] | 5.2%
CCc1nnc(NC(=O)CCC(=O)N2CCN(Cc3ccc(OC)c(F)c3)CC2)s1 | / | 4% | / | -9% | -4% | -23% | / | /
CCO[C@H]1OC(C(=O)NCc2ccccc2)=C[C@@H](c2ccccc2)[C@@H]1CCCO | / | -1% | / | -5% | 1% | 0% | / | /
COc1ccc(Cc2c(O)nc(SCC(C)C)[nH]c2=O)cc1 | / | 22% | / | 16% | 3% | -17% | / | /
NC(=O)c1cc(S(=O)(=O)N2CCOCC2)ccc1Sc1ccccc1N | / | / | -14% | -12% | 2% | 4% | 4%[46.1 µM] | /
CNC(=S)N1N=C(c2ccc(C)cc2)CC1c1cc(OC)ccc1OC (stereo unspecified) | / | 11% | ? | -3% | -1% | -19% | ? | /
CN(C)CCNC(=O)CN1C(=O)COc2ccc(S(=O)(=O)N3CCCC3)cc21 | -15% | / | 1%[46.1 µM] | / | / | ? | 2%[46.1 µM] | 1.1%
Cc1cc(Cl)c(S(=O)(=O)N2CCSCC2)cc1OCC(=O)NC1CCCCC1 | 1% | 12% | ? | 4% | 7% | -55% | 9.2µM* | 1.6%
COc1ccc(C(=O)NCC(=O)N/N=C/c2ccc([N+](=O)[O-])o2)cc1OC | / | -45% | ? | -19% | 6% | -16% | ? | /
CCc1ccc(/C=C(\C#N)C(=O)NC2CCS(=O)(=O)C2)cc1 (stereo unspecified) | / | / | 10% | 5% | 0% | ? | ? | /
